# Screening data as filed in PubChem BioAssay.
# NPYLR7 ag: activates Aedes aegypti NPYLR7 receptor; 270,000 tested, 0.15% active; HEK293T NPYLR7/Galpha15, GCaMP6s calcium fluorescence; activation, % at 10 µM; in the data active means activation above about 40%;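 further: 0% = vehicle and 100% = reference agonist at the receptor; some compounds past the cut are filed as inactive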
# NPYLR7 ag max-min: also measured in NPYLR7 ag; calls as there; activation, %; measured here: Max-Min RFU normalised activation; some inactives read as strong as hits;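 span of the calcium signal over five minutes; 0% = vehicle and 100% = native peptide agonist; compound fluorescence can raise it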
# Active calls of the source: *; & = joins results of further samples.
# Results follow in this order: NPYLR7 ag | NPYLR7 ag max-min
> NC(=O)C1CCCN1S(=O)(=O)C1=Cc2ccccc2CC1 (centres undefined)
→ -3.3 | -4.9
> COCCN(Cc1ccc(OC)c(OCc2nc(CO)cs2)c1)C(=O)c1cccs1
→ -0.2 | 3.3
> Cc1cc(Br)c2[nH]c(O)c(N=NC(=O)COc3ccc(C(C)(C)C)cc3C)c2c1
→ -1.8 | -8.7
> CC(=O)c1[nH]c(C)c(C(=O)N2CCCC3(CC2)CN(C)C(=O)O3)c1C (centres undefined)
→ 14.6 | 12.6
> CC(=O)N1CCn2c(nnc2C(=O)NCC2CC2)C1
→ 5.7 | 2.1
> O=C(CSc1nnc(CNC(=O)c2cc(Cl)ccc2Cl)n1-c1ccc(F)cc1)c1ccccc1
→ -6.4 | -10.7
> COc1ccc(C2C(C#N)=C(C)NC3=C2C(=O)CCC3)cc1OC (centres undefined)
→ -5.6 | -11.2
> O=C(c1ccccc1F)N1CCCC(N2CCN(c3ccccc3F)CC2)C1 (centres undefined)
→ 0.6 | 8.2
> C#CCN1CCC(C(=O)NCC2CCN(C3CC3)C2)CC1 (centres undefined)
→ -3.3 | -7.6
> Cc1nc(SCC(N)=O)c(C#N)c(C)c1CC(=O)c1ccc(Br)cc1
→ -6.0 | -6.0
> COCCNC(=O)c1coc(CN(Cc2ccccc2Cl)C2CC2)n1
→ 19.3 | 29.9
> C=CCNS(=O)(=O)c1cc(C(=O)Nc2cccc(C)n2)ccc1Cl
→ 5.4 | 1.0
> COc1ccc(N2C(=O)c3ccccc3NC2c2ccc(OC)c(CSc3nc4ccccc4s3)c2)cc1 (centres undefined)
→ -8.6 | -6.3
> O=C(c1ccc(O)cc1)N1CCC(N2CCSCC2)CC1
→ 4.5 | 1.8
> CCCCN1C(=O)C(=Cc2c(N3CCC(C)CC3)nc3ccc(C)cn3c2=O)SC1=S
→ -0.4 | -1.2
> O=C(CCc1cc2c(n1-c1ccc(Cl)cc1)-c1ccccc1OC2)NCCc1cccc(Cl)c1
→ -0.3 | 0.8
> CN(CCOc1ccccc1Cl)C(=O)Nc1ccc2c(c1)OCO2
→ 0.3 | 0.2
> O=S(=O)(c1ccccc1Cl)N1CCN(Cn2[nH]c(C=Cc3ccccc3)nc2=S)CC1
→ -2.1 | -3.2
> CCOC(=O)C(NC(=O)c1cccc(S(=O)(=O)N(C)OC)c1)c1cccc2ccccc12 (centres undefined)
→ -0.3 | 2.1
> CCOCCn1c(C)cn2c3c(=O)n(C)c(=O)n(C)c3nc12
→ 14.3 | 9.2
> Cc1c(C(=O)NC(C)(C)c2noc(C(C)(C)C)n2)oc2c1C(=O)CCC2
→ 1.6 | -0.8
> COC(=O)c1ccc(C(=O)Nc2ccc(C(N)=O)cc2C)s1
→ 19.3 | 16.1
> CCc1nc2n(n1)C(=O)C(C(c1cccs1)N1CCN(c3ccccc3F)CC1)S2 (centres undefined)
→ -3.9 | -7.5
> Cn1ccnc1-c1nccn1CC1COCCO1 (centres undefined)
→ 0.3 | -0.8
> Cc1cc(N2CCN(C(=O)Nc3ccccc3C)CC2)nc(-c2cccc(F)c2)n1
→ -2.2 | 10.1
> NC(=O)C1CC(C(=O)N2CCc3c(Cl)cccc32)=NN1c1ccccc1 (centres undefined)
→ -2.3 | -4.7
> COCC(=O)Nc1cccc(-c2ccccc2Cl)c1
→ 0.4 | 1.7
> Cc1c(-c2nccn2Cc2cc(C(C)C)no2)c(=O)n(-c2ccccc2)n1C
→ 12.8 | 3.0
> CCc1ccccc1NC(=O)C(=O)N1CCOC2(CNCCOC2)C1 (centres undefined)
→ -17.9 | -20.1
> CCOC(=O)C1(Cc2ccc(Cl)cc2)CCN(C(=O)c2ccc(COC)o2)CC1
→ -10.4 | -11.9

# Other structures.
# Results follow in this order: NPYLR7 ag | NPYLR7 ag max-min
> CS(=O)(=O)c1ccc(C(=O)N(CCCN2CCOCC2)c2nc3ccccc3s2)cc1
→ 1.8 | -5.9
> Cn1c(=O)c([N+](=O)[O-])c(NCC2CCCO2)c2ccccc21 (centres undefined)
→ 0.7 | 6.9
> N#Cc1cc(C(=O)O)c(N)[nH]c1=O
→ 9.8 | 8.4
> COc1ccc(C(=O)CC2(O)C(=O)Nc3ccccc32)cc1 (centres undefined)
→ 0.4&0.0 | -5.4&-1.2
> COC(=O)c1ccccc1SC1CC(=O)N(c2sccc2C(=O)OC)C1=O (centres undefined)
→ 2.5 | 1.3
> CCC1(c2ccc(Cl)cc2)NC(=O)N(CC(=O)N(C)CC(=O)Nc2ccc(F)cc2)C1=O (centres undefined)
→ 14.1 | 10.7
> CN1CC[C@H](N(Cc2ccccc2)Cc2nccn2C)C[C@H](O)C1
→ 3.9 | 13.3
> CC(C)(C)CC(=O)N1CCN(S(=O)(=O)c2ccc(F)c(Cl)c2)CC1
→ -2.5 | 31.3
> Cc1cc(NS(=O)(=O)c2ccc(Cl)cc2)no1
→ 11.0 | 3.7
> CCOCC1CCCN(c2ncc(Br)c(OC)n2)C1 (centres undefined)
→ 8.3 | 4.3
> Cn1ccnc1SCCn1ccnc1-c1ccc(Cl)s1
→ 4.6 | 0.9
> Cc1nc2scc(C)n2c(=O)c1NC(=O)c1cccnc1Cl
→ 12.7 | 2.8
> CCOC(=O)c1c(NC(=O)C(C)N2CCCC(C(=O)OCC)C2)sc2c1CCC(C)C2 (centres undefined)
→ -4.3 | -11.1
> Cc1cc(N2CC34C=CC(O3)C(C(=O)NC[C@H]3CCCC[C@H]3O)C4C2=O)no1 (some centres undefined)
→ -0.7 | 6.5
> Cc1cc(NC(=O)COC(=O)CCn2c(C)csc2=O)no1
→ 7.0 | 9.9
> O=C(NCCC(F)(F)F)NCc1ccccc1CO
→ -6.8 | 278.4
> COCCNc1nc2cc(-c3ccc(C)cc3)sc2c(=O)n1C
→ 10.5 | 7.3
> Cc1ccccc1OCC1CCCN(C(=O)Cc2c[nH]c(=O)[nH]c2=O)C1 (centres undefined)
→ -0.3 | -0.7
> O=C1C(Cl)=C(Nc2cccc(Br)c2)C(=O)N1Cc1ccc(Br)cc1
→ -1.3 | -6.2
> O=C1c2ccccc2C(=O)N1CC1(CO)CCCC1
→ -3.1 | -3.1
> COCCNC(=O)c1ccc(Nc2c(Oc3cccc(Cl)c3)cnn(C)c2=O)cc1
→ -2.5 | 2.9
> CCOC(=O)C(N)CSC1CC(=O)N(c2ccc(I)cc2)C1=O (centres undefined)
→ 12.4 | 9.4
> COc1cccc(C(=O)N(Cc2cccc(OC)c2OCc2nc(CO)cs2)C2CC2)c1
→ 10.3 | 8.4
> O=C(C=CNc1ccc(F)cc1)C(F)(F)F
→ 1.4 | 1.4
> O=S(=O)(NCc1ccccc1)N1Cc2ccccc2C1
→ -0.1 | 3.2
> O=C(CCl)Nc1ccc(N2CCCCC2)cc1
→ -4.8 | -14.1
> COc1coc(C(=O)NCc2ccc(F)cc2)cc1=O
→ 3.2 | 1.9
> CCOC(=O)c1ccc(NC(=O)N2CCC3(CCCN(C)C3=O)C2)cc1 (centres undefined)
→ 27.7 | 21.7
> CCc1ccc(-c2cc(C(=O)O)c3[nH]c(C)nc3n2)cc1
→ -0.8 | -1.2
> CC(C)(O)C#Cc1ccc(CN2CCCN(C(=O)c3ccco3)CC2)s1
→ 10.7 | 11.4

# Next section
# Results follow in this order: NPYLR7 ag | NPYLR7 ag max-min
> CC1CCCC(NC(=O)c2ccc(S(=O)(=O)N3CCCC3)o2)C1C (centres undefined)
→ 0.8 | -0.4
> CC(C)Nc1nnc(SCC(=O)NC2CCCCC2C)s1 (centres undefined)
→ -3.3 | -8.2
> Cc1cc(C)n(Cc2cccc(C(=O)N3CCC4(CCNCC4)CC3)c2)n1
→ 7.6 | 5.8
> O=C(Cn1c(NCCCO)nc2ccccc21)C12CC3CC(CC(C3)C1)C2
→ -3.1 | 1.9
> COCCNC(=O)c1cccc(Nc2c(OC(C)C)cnn(-c3ccccc3)c2=O)c1
→ -3.6 | 7.8
> COCCNc1nc(CN2CCN(C(=O)c3ccco3)CC2)nc2ccc(Cl)cc12
→ 18.0 | 7.1
> COC(=O)C(Cc1ccccc1)n1c(C)ccc1C (centres undefined)
→ -1.4 | -3.9
> CCCCOc1cc(C)c(C)cc1S(=O)(=O)N1CCCC(C)C1 (centres undefined)
→ 18.8 | 19.0
> CCCn1c(=O)[nH]c(=O)c2c(-c3cccc4ccccc34)ccnc21
→ -1.2 | 29.1
> CCn1cc(C(=O)N[C@H](C(=O)NCCCN2CCCC2=O)C(C)C)c(=O)c2cc3c(cc21)OCO3
→ 1.7 | 49.8
> O=C(Nc1nc2ccccc2s1)C1CCCN1S(=O)(=O)c1ccc(Cl)cc1 (centres undefined)
→ -0.1 | -1.4
> O=S(=O)(c1ccccc1-n1ccnc1)C(F)(F)F
→ -2.3 | 5.8
> CC(=O)Oc1c(-c2ccc(NC(=O)c3ccco3)cc2)c(-c2ccc3c(c2)OCO3)nn1-c1cccc(C)c1
→ 15.5 | 16.3
> CC1CN(Cn2ncnc2-c2ccccc2Cl)CC(C)O1 (centres undefined)
→ 3.4 | -0.2
> Cc1ccc(CN2C[C@@H]3C[C@@H](c4ccc(-n5cccn5)cc4C)N4CCC[C@@]34C2=O)o1
→ -2.7 | -5.4
> COc1ccc(-c2onc(C)c2C(=O)N(C)Cc2cc(OC)c(OC)c(OC)c2)cc1
→ 10.1 | 3.5
> C=CCOC(=O)c1[nH]c2c(c1C)C(=O)C(C(=O)OC)C(C)C2 (centres undefined)
→ 11.9 | 4.4
> Cc1onc(-c2ccccc2)c1C(=O)Nc1sc(C)c(C)c1C(N)=O
→ 1.5 | -1.0
> O=C1C(C(c2cccc(F)c2)N2CCc3ccccc3C2)Sc2ncnn21 (centres undefined)
→ 0.9 | 0.3
> COCCCN(CC(=O)N(Cc1ccc2c(c1)OCO2)Cc1cccs1)C(=O)c1cccc(Br)c1
→ -9.2 | -3.2
> COc1cccc(CNC(=O)CCC2CCCN(c3cc(C)nc(N)n3)C2)c1 (centres undefined)
→ -4.7 | -5.1
> CCCSc1nnc(CSc2nc(C)cc(C)n2)n1CCc1ccccc1
→ -5.7 | 1.6
> COc1ccc(NC(=O)N(C)CC(O)COc2ccc3c(c2)OCO3)cc1 (centres undefined)
→ -0.6 | -3.2
> CCOC(=O)C1(CCOc2ccccc2)CCN(Cc2cnc(C)s2)CC1
→ 5.2 | 1.8
> O=[N+]([O-])C1C(=Nc2ccc(F)cc2)NN=C1c1nnco1 (centres undefined)
→ -8.9 | -8.0
> CC(CCN1CCN(c2ccccc2)CC1)NC(=O)c1cc(Cl)c(Cl)n1C (centres undefined)
→ 1.3 | -0.5
> Cc1ccn2c(=O)c(NC(=O)COc3ccc4ccccc4c3)c(C)nc2c1
→ -2.2 | -2.6
> C[C@]12CC[C@@H]3c4ccc(O)cc4CC[C@H]3[C@@H]1CCC2=O
→ -0.8&-0.3 | -5.9&-26.0
> O=S(=O)(c1ccccc1-c1ccccc1)N1CCCCCC1
→ 11.4 | 9.5
> COCCOc1nc(-c2ccc(C(F)(F)F)cc2)n(-c2ccc(NCC(O)COc3ccccc3)cc2)n1 (centres undefined)
→ -1.5 | 6.0

# 6 compounds from above, sorted by molar mass, high to low:
# Results follow in this order: NPYLR7 ag | NPYLR7 ag max-min
> COCCOc1nc(-c2ccc(C(F)(F)F)cc2)n(-c2ccc(NCC(O)COc3ccccc3)cc2)n1 (centres undefined)
→ -1.5 | 6.0
> CCOC(=O)C1(CCOc2ccccc2)CCN(Cc2cnc(C)s2)CC1
→ 5.2 | 1.8
> O=C(Cn1c(NCCCO)nc2ccccc21)C12CC3CC(CC(C3)C1)C2
→ -3.1 | 1.9
> CCCCOc1cc(C)c(C)cc1S(=O)(=O)N1CCCC(C)C1 (centres undefined)
→ 18.8 | 19.0
> CC(C)Nc1nnc(SCC(=O)NC2CCCCC2C)s1 (centres undefined)
→ -3.3 | -8.2
> O=S(=O)(c1ccccc1-c1ccccc1)N1CCCCCC1
→ 11.4 | 9.5

# (cont.)
# Results follow in this order: NPYLR7 ag | NPYLR7 ag max-min
> CCCc1nc(NCCSc2nnnn2C)c2cnn(C)c2n1
→ -0.5 | -3.5
> O=C(NC1COc2ccccc21)c1cc(-c2ccccc2F)on1 (centres undefined)
→ 6.1 | 3.2
> C=C(C)CNC(=O)c1cc(-c2ccc(OCC)cc2)nc2ccccc12
→ 9.3 | 3.3
> O=C(c1cn(CCc2ccccc2)nn1)N1CCC(O)(c2cccc(C(F)(F)F)c2)CC1
→ 7.0 | 3.0
> CN1[C@H]2CC[C@@H]1CN(C(=O)c1cccc(CC3CCNCC3)c1)CC2
→ 6.8 | 5.8
> O=C(NCc1ccc(N2CCCC2=O)cc1)c1cc(-c2ccc(Cl)cc2)on1
→ 2.2 | -0.3
> CCCCC(=O)Nc1c(-c2ccc(OC)cc2)nc2ccc(C)cn12
→ -3.7 | -1.8
> CCc1ccccc1NC(=O)c1nnn(Cc2nc(-c3ccccc3)oc2C)c1C
→ -0.4 | -8.7
> COc1ccc(CN(C(=O)c2cnc(C(C)C)nc2)C(C)C)c2ccccc12
→ 28.2 | 11.6
> Cc1cccc(N2CCN(c3nc(-c4cccc(Br)c4)nc4ccccc34)CC2C)c1 (centres undefined)
→ 7.2 | 14.4
> O=c1[nH]nc(C2CCC2)n1CCc1ccccc1F
→ -0.2 | -4.1
> COC(=O)c1ccc(CN(C)Cc2cc(-c3ccncc3)no2)cc1
→ 0.4 | 1.0
> COc1cc(NC(=O)Cn2nc(C(F)(F)F)cc2C)c(OC)cc1Cl
→ -1.1 | -6.4
> CC(=O)Oc1cc(C(C)C)c(OCCN(C)C)cc1C
→ -3.9&5.8 | -6.0&-51.8
> Cc1cc(C)cc(-c2ccc(-n3cncc3C(=O)N(C)Cc3c4ccccc4cc4ccccc34)cc2)c1
→ 8.9 | 6.0
> COc1ccc(/C=C2\SC(=S)N(CC(=O)Nc3nccs3)C2=O)cc1
→ -12.2 | -15.0
> CCOC(=O)c1nn(CCc2ccc(OC)cc2)c2c1CN(C(=O)C1COc3ccccc3C1)CC2 (centres undefined)
→ 18.9 | 1.3
> CC1=CSC2=NC(=O)/C(=C/c3ccc(OCCOc4ccccc4)c(Br)c3)C(=N)N12
→ -2.1 | -2.6
> CCc1nc2ccc(C(=O)N3CCN(C(=O)c4ccco4)CC3)cn2c1N(CC)C(=O)CCC1CCCC1
→ -3.3 | 7.0
> COC(=O)c1nnn(-c2nonc2N)c1-c1cccs1
→ 1.2 | -0.8

# Some of the compounds tested (hit frequency here may not be typical).
